BJeLR lethal – kills HRASV12-expressing BJeLR cells; inhibition, % (concentration not given with the values); AID 1554; 300,000 tested, 0.17% active; BJeLR (HRASV12) viability, CellTiter-Glo ATP luminescence, 48 h; reference of the scale not given here;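 active means replicate mean above 50%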;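 further: 50 nL library stock added to about 25 µL; numbers are from one replicate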
* marks the source's active call; other numbers are inactive results. These rows are one share of the data; count on the stated rates, not on these rows.

SMILES	BJeLR lethal
CC(C)c1cc(Nc2cccc(O)c2)cc(C(C)C)c1O	-7
CCOC(=O)COn1c(=O)c(-c2ccc(OC)c(OC)c2)[n+]([O-])c2ccccc21	-10
COC(=O)CCC(=O)OC1(C)C(=O)C2=CN(CCCCO)C(c3ccc(OC)cc3)=CC2=C(Br)C1=O (stereo unspecified)	-2
COC(=O)[C@@H]1CC[C@H](C)[C@@H](c2ccc(C)cc2)N1C(=O)c1ccc(/C=N/O[C@H](C)c2cn([C@@H]3COC[C@H]3O)nn2)cc1	3
C/C=C\C(=O)Nc1cccc(C2=NOC3(C2)C[C@H](C(N)=O)N(C(=O)[C@H]2CCC(=O)N2)C3)c1 (stereo partly specified)	7
O=C1NC(=S)N(c2ccc(F)cc2)C(=O)/C1=C/c1ccco1	4
O=C(CNC(=O)c1ccccc1O)N/N=C/c1cc(Br)ccc1OC(=O)/C=C/c1ccco1	1
O=C(O)c1cccc(-c2ccc(/C=N/n3cnc4sc5c(c4c3=O)CCCC5)o2)c1	9
O=C(c1ccccc1)c1c[nH]c2cc3c(cc2c1=O)OCO3	10
O=C(Nc1nc2ccccc2s1)Nc1ccc([N+](=O)[O-])cc1Cl	-11
On1c2c(c3c4nonc4ccc31)CCCC2	-16
Cc1ccc(S(=O)(=O)c2nc(C)oc2NCc2ccccc2)cc1	8
O=c1c(O[C@@H]2O[C@H](CO)[C@@H](O)[C@H](O)[C@H]2O)c(-c2ccc(O)c(O)c2)oc2cc(O)cc(O)c12	-22
Oc1c(C=NCc2ccc(F)cc2)[nH]c2ccc(Br)c(Cl)c12	-10
CC1=C(C)Cc2c(OC(=O)c3ccccc3)ccc(OC(=O)c3ccccc3)c2C1	4
Cc1ccc(N2C(=O)NC(=O)/C(=C\c3ccc([N+](=O)[O-])o3)C2=O)cc1	2
CCC(C)n1cnc2c(c1=O)c1nc3ccccc3nc1n2Cc1ccc2c(c1)OCO2 (stereo unspecified)	-6
CCCC1Cc2c(sc(NC(=S)NC(=O)c3ccccc3)c2C#N)CO1 (stereo unspecified)	9
CN1C(=O)c2c(sc3c2CCCC3)NC1c1ccccc1O (stereo unspecified)	0
Cc1ccc(OC(=O)c2cccc(C(=O)Oc3ccc(C)cn3)n2)nc1	11
CC1=NN(c2ccccc2)C(=O)/C1=C/c1c(C)[nH]n(-c2ccc(C)cc2)c1=O	0
CCCOc1ccc(-c2nc(-c3ccc(N)cc3)cs2)cc1	-6
Cc1ccc(S(=O)(=O)c2ccccc2)cc1S	-6
C[C@@H]1CC=C[C@H]2[C@H]1C(=O)N(Cc1ccccc1)[C@H]2c1ccc(F)c(Br)c1	1
CCOc1ccc(S(=O)(=O)n2nnc3ccccc32)cc1C(C)C	2
O=C(N/N=C\c1ccco1)c1cncc(Br)c1	0
COC(=O)C1=C(C(=O)OC)[C@@H]2N(C)c3ccc(OC)cc3[C@@]23C[C@@H](C(=O)OC)N(C(=O)COCc2ccccc2)C3=N1	-4
O=C1Nc2cc(C(=O)N3CCN(c4ccccc4F)CC3)ccc2NC1CSCc1ccccc1F (stereo unspecified)	5
CCN(CC)c1ccc(/C=C2/C(=O)N(c3ccc([N+](=O)[O-])cc3)N=C2N2CCOCC2)cc1	-1
C#CCOCCOCCOCCNc1nc(N2CCN(C(=O)C(Cc3cc4ccccc4[nH]3)n3cc(C(N)Cc4ccc(O)cc4)nn3)CC2)nc(N2CCN(C(=O)C(Cc3cc4ccccc4[nH]3)n3cc(C(N)Cc4ccc(O)cc4)nn3)CC2)n1 (stereo unspecified)	-5
Fc1ccc(-n2nnc(-c3ncc[nH]3)n2)cc1	4
CCc1ccc(C(=O)N/N=C/c2ccc(Cl)cc2Cl)nc1	-7
COc1cc(CC(=O)N/N=C/c2ccccc2)c([N+](=O)[O-])cc1OC	3
Cc1ccc(Cc2c(C)nc3nc(SCC(=O)NCCCN4CCCCCC4)nn3c2C)cc1	-4
COC(=O)C/C=C/[C@@H](C)[C@@H](/C=N/OC[C@@H](C)[C@H](OCc1ccccc1)C(C)C)NS(=O)(=O)c1ccc(C)cc1	0
Cc1ccc(O)c(O)c1	-8
COC(=O)/C(=C/c1cn(C)c2ccccc12)[N+](=O)[O-]	3
N#CC1=C(N)OC2=C(CCC/C2=C/c2ccoc2)C1c1ccoc1 (stereo unspecified)	-5
C#CCOCCOCCOCCNc1nc(N2CCN(C(=O)[C@H](CCC(=O)O)n3cc(C(N)CO)nn3)CC2)nc(N2CCN(C(=O)[C@H](CCCCN)n3cc(C(N)CC(C)C)nn3)CC2)n1 (stereo partly specified)	-3
CCCNC(=O)OC[C@H]1O[C@H](CCO/N=C/[C@@H](NS(=O)(=O)c2ccc(C)cc2)[C@H](C)/C=C/CC(=O)OC)C=C[C@@H]1Oc1ccc(OC)cc1	3
CCCC[C@@H](CN[C@H](C)CNC)NCC1CCC(C(C)(C)C)CC1 (stereo partly specified)	18
O=C(c1cccc2ccccc12)n1nnc2ccccc21	-1
Cc1cc(OCCN2CC2)c2ccccc2n1	9
COCc1cc(C)nc(N/N=C/c2ccc(-c3ccc(C(=O)O)c(Cl)c3)o2)c1C#N	-1
CC1=CCC(/C=N\Nc2nnc3c(n2)[nH]c2ccccc23)CC1 (stereo unspecified)	-9

15 entries out of the list, ordered by formula weight, ascending.
SMILES	BJeLR lethal
Cc1ccc(O)c(O)c1	-8
Cc1ccc(S(=O)(=O)c2ccccc2)cc1S	-6
CC(C)c1cc(Nc2cccc(O)c2)cc(C(C)C)c1O	-7
CCCOc1ccc(-c2nc(-c3ccc(N)cc3)cs2)cc1	-6
CN1C(=O)c2c(sc3c2CCCC3)NC1c1ccccc1O (stereo unspecified)	0
Cc1ccc(N2C(=O)NC(=O)/C(=C\c3ccc([N+](=O)[O-])o3)C2=O)cc1	2
CCOc1ccc(S(=O)(=O)n2nnc3ccccc32)cc1C(C)C	2
CC1=NN(c2ccccc2)C(=O)/C1=C/c1c(C)[nH]n(-c2ccc(C)cc2)c1=O	0
CC1=C(C)Cc2c(OC(=O)c3ccccc3)ccc(OC(=O)c3ccccc3)c2C1	4
C[C@@H]1CC=C[C@H]2[C@H]1C(=O)N(Cc1ccccc1)[C@H]2c1ccc(F)c(Br)c1	1
CCC(C)n1cnc2c(c1=O)c1nc3ccccc3nc1n2Cc1ccc2c(c1)OCO2 (stereo unspecified)	-6
O=c1c(O[C@@H]2O[C@H](CO)[C@@H](O)[C@H](O)[C@H]2O)c(-c2ccc(O)c(O)c2)oc2cc(O)cc(O)c12	-22
O=C1Nc2cc(C(=O)N3CCN(c4ccccc4F)CC3)ccc2NC1CSCc1ccccc1F (stereo unspecified)	5
O=C(CNC(=O)c1ccccc1O)N/N=C/c1cc(Br)ccc1OC(=O)/C=C/c1ccco1	1
COC(=O)C/C=C/[C@@H](C)[C@@H](/C=N/OC[C@@H](C)[C@H](OCc1ccccc1)C(C)C)NS(=O)(=O)c1ccc(C)cc1	0

Next results
SMILES	BJeLR lethal
Cc1nc(SCC(=O)Nc2ccccc2C(F)(F)F)c(C#N)c(C)c1CC(=O)c1ccc(Br)cc1	-3
CCc1ccc(C2=NN(CCC(=O)NC3CC3)C(=O)CC2)cc1	7
CCOc1ccc(N2C(=O)CN(O)C=C3N=c4ccccc4=C32)cc1	7
C[C@@H]1NC(=O)[C@H](CCCN=C(N)N)NC(=O)c2cc([N+](=O)[O-])cc(I)c2OCC[C@@H](C(=O)NC(CC(=O)O)C(N)=O)NC1=O (stereo partly specified)	4
Cn1cc(/C=N\NC(=O)C2COc3ccccc3O2)c2ccccc21 (stereo unspecified)	14
Cn1cnc2c1c(=O)[nH]c(=O)n2C	9
CCCNC(=O)OC[C@H]1O[C@H](CCO/N=C(\C)CCN2CCc3nc(-c4ccccc4)c(-c4ccccc4)cc3C2)C=C[C@@H]1Oc1ccc(OC)cc1	3
CCOC(=O)CN(Cc1ccccc1)C(=O)OC(C)(C)C	0
COc1ccc(O)c(C(=O)CC(=O)c2ccccc2)c1	19
CN1C(=O)CC[C@H]1c1cccnc1	11
COC/C=C/C1=CC2=CC(=O)C(C)(OC(=O)CCC(=O)OC)C(=O)C2=CO1 (stereo unspecified)	-3
Cn1c(=O)c(C(=S)NC(=O)C2CC2)c(N)n(Cc2ccccc2)c1=O	-12
CN1C(=O)/C(=C/c2cn(CC(=O)N3CCCCC3)c3ccccc23)c2ccccc21	1
CCC/C=C(\CCC)C(NS(=O)(=O)c1ccc(C(F)(F)F)cc1)c1ccccc1 (stereo unspecified)	-2
O=C1c2c(O)cc(O)cc2O[C@H](c2ccc(O)c(O)c2)[C@@H]1O	-13
CCN(CC)S(=O)(=O)c1ccc2c(c1)c(=O)c(C(=O)NCc1ccc3c(c1)OCO3)cn2C	-16
COc1cc2c(cc1O)[C@H](Cc1ccc(Oc3cc(C[C@@H]4NCCc5cc(OC)c(O)cc54)ccc3O)cc1)NCC2	3
OCCN1C[C@H](O)[C@@H](O)[C@H](O)[C@H]1CO	-5
COc1ccc(C2=NC(c3ccccc3)CO2)cc1 (stereo unspecified)	-3
Cc1c(Nc2cc(N3CCOCC3)c3nonc3c2[N+](=O)[O-])c(=O)n(-c2ccccc2)n1C	10
Cc1[nH]c(=O)[nH]c(=O)c1/C=N\NC(=O)CCc1ccc(OC(C)C)cc1	5
COc1ccc(C)cc1Nc1n[n+](-c2ccccc2)c(-c2c(Cl)cccc2Cl)s1	0
C#CCOCCOCCOCCNc1nc(N2CCN(C(=O)[C@H](CCCCN)n3cc([C@@H](N)CO)nn3)CC2)nc(N2CCN(C(=O)[C@H](Cc3cc4ccccc4[nH]3)n3cc([C@@H](N)Cc4ccc(O)cc4)nn3)CC2)n1	-1
COc1cc(S(=O)(=O)Nc2cccc(C)c2)ccc1N=Cc1c(C)[nH]n(-c2ccccc2)c1=O	16
COC(=O)c1cc(NC(=O)c2cccc(Cl)c2)c(=O)oc1/C=C/Nc1cc(C)cc(C)c1	13
CCOc1cc(/C=C2\C(=O)N(c3cccc(C(=O)O)c3)N=C2C(F)(F)F)ccc1OCC(=O)Nc1ccccc1OC	4
COC(=O)[C@@]1(Cc2ccc(OC)cc2)[C@H]2c3cc(C(=O)N4CCCC4)n(C[C@H](O)CO)c3C[C@H]2CN1C(=O)c1ccccc1	-11
CCOC(=O)CC1C(=O)NCCN1c1nc2ccc(C)cn2c(=O)c1/C=C1\SC(=S)N(C(C)CC)C1=O (stereo unspecified)	-1
C[C@H]1[C@H](C)CC[C@]2(C)CC[C@]3(C)C(=CC[C@@H]4[C@@]5(C)CC[C@@H](O)[C@](C)(C(=O)O)[C@@H]5CC[C@]43C)[C@H]12	6
CCc1ccc(CNC(=O)Cn2nc(-c3ccc(C)cc3)ccc2=O)cc1	-3

Two records drawn at random from the list so far, as already listed:
SMILES	BJeLR lethal
OCCN1C[C@H](O)[C@@H](O)[C@H](O)[C@H]1CO	-5
CC(C)c1cc(Nc2cccc(O)c2)cc(C(C)C)c1O	-7

The list goes on.
SMILES	BJeLR lethal
Cc1cc(/C=N/Nc2nc(N)ncc2[N+](=O)[O-])c(C)n1-c1ccccc1F	-3
CCc1cc2c(nc1CC)CCN(CC/C(C)=N/O[C@@H](C)c1cc(-c3c(C)cc(C)cc3C)no1)C2	-13
O=c1nc(/C=C/c2ccc(-c3ccc(F)cc3)o2)cc(C(F)(F)F)[nH]1	2
O=C(CN(c1ccccc1)S(=O)(=O)c1ccccc1)N/N=C/c1ccc(OC2CSC2)cc1	7
COc1nc(N/N=C/c2ccc(-c3cccc([N+](=O)[O-])c3)o2)nc(N2CCOCC2)n1	-3
NC(N)=Nc1cc2ccccc2c2ccccc12	-4
COCCOC(=O)C1=C(C)NC(=O)NC1c1c(Cl)nc2c(C)cccn2c1=O (stereo unspecified)	2
O=C(N/N=C/c1ccccn1)c1cc(-c2ccccc2)nc2ccccc12	1
COc1ccc(-c2cccc(C3CC=CC4C3C(=O)N(Cc3ccccc3)C4c3cc(C)ccc3F)c2)cc1 (stereo unspecified)	7
CCOc1ccc(NC(=O)CCC(=O)n2nc(C)cc2C)cc1	-8
COc1ccc(-n2c(=S)[nH]c3sc4c(c3c2=O)CCN(C)C4)cc1	12
COCCCNC(=O)c1cc2c(=O)n3cc(C)ccc3nc2nc1NCC1CCCO1 (stereo unspecified)	4
COc1ccc(N2C(=O)N3[C@H](c4cccc(C)c4)[C@@H]4C(=O)N(Cc5ccccc5)C(=O)[C@@H]4[C@]3(Cc3ccccc3)C2=O)cc1	-8
N#CC1=C(N)SC(N)=C(C#N)C1c1ccoc1	1
C[C@@H]1C=CC(=O)O[C@@H]1c1ccc(C(F)(F)F)cc1	92*
O=C(O)c1cc(N/N=C/c2cccs2)ccc1Cl	6
COc1cc2c(cc1NC(=O)Cn1cnc3c1c(=O)n(C)c(=O)n3C)oc1ccccc12	3
S=c1[nH]nc(-c2cccc(Cl)c2)n1/N=C/c1ccco1	3
C/C(=N\O)c1ccc(Cl)c(Cl)c1	-4
CC1(OC(=O)CCc2ccccc2)C(=O)C=C2C=C(c3ccsc3)OC=C2C1=O (stereo unspecified)	-1
N=C(N)N1CCc2ccccc2C1	-20
CCN=C1S/C(=C\c2ccc(OC)c(OCC)c2)C(=O)N1CC	3
Cc1ccc(Nc2nc(-c3sc(NC(=O)c4ccc([N+](=O)[O-])cc4)nc3C)cs2)cc1	-2
O=C(CN1C(=O)NC(c2ccccc2)(c2ccccc2)C1=O)c1c[nH]c2ccccc12	-8
Cc1ccc(SC[C@H](Cc2ccccc2)N2CC[C@@H](NC(=O)OCc3ccccc3)CCC2=O)cc1	-1
COC(=O)[C@@H]1CC[C@H](C)[C@@H](c2ccc(C)cc2)N1C(=O)c1ccc(/C=N/OC[C@@H](O)COCc2ccco2)cc1	-3
O=C(O)c1ccccc1/C=N/Nc1nc(N2CCCCC2)nc(N2CCCCC2)n1	-5
CN1C(=O)COc2c(C(=O)NC3CN4CCC3CC4)cc(Cl)cc21 (stereo unspecified)	10
CCCCCCCCCC(=O)Nc1cccnc1	-1
FC(F)(F)c1ccc(CN2C[C@@H]3C(c4ccccc4)C4(c5ccccc5)CC3(C4)[C@H]2c2ccccc2)cc1 (stereo partly specified)	11
COc1ccc(OC)c(Nc2nc(-c3sc(NC(=O)c4ccccc4)nc3C)cs2)c1	19
COc1ccc(C(=O)c2c(N)sc3c2CCN(C(=O)OC(C)(C)C)C3)cc1	8
Cc1ccc(CN2CCc3c(OCC(=O)Nc4cc(C)ccc4C)cccc3C2=O)cc1	-19
COc1cc(CNC(=O)CCCC/C=C\C(C)C)ccc1O	-4
CC(C)CC(=O)O/N=C1\C(=O)N(Cc2ccc(Cl)cc2)c2ccc([N+](=O)[O-])cc21	-4
